NPYLR7 ag = agonists of mosquito NPYLR7 receptor, primary screen, cell-based, Aedes aegypti, calcium fluorescence, mosquito biting behavior; Aedes aegypti neuropeptide Y-like receptor 7 (NPYLR7); HEK293T NPYLR7/Galpha15, GCaMP6s calcium fluorescence; activation, % at 10 µM; 270,000 compounds, 0.15% hits; AID 1259423, 2018; in the data active means activation above about 40%;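 further: 0% = vehicle and 100% = reference agonist at the receptor; some compounds past the cut are filed as inactive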
NPYLR7 ag max-min = further read-out of NPYLR7 ag, marked with its call; activation, %; measured here: Max-Min RFU normalised activation; some inactives read as strong as hits;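 span of the calcium signal over five minutes; 0% = vehicle and 100% = native peptide agonist; compound fluorescence can raise it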
Starred values were filed as active, the others as inactive. Not all compounds are listed; count on the stated rates, not on these rows.

SMILES	NPYLR7 ag	NPYLR7 ag max-min
CCOc1ccc(/C=C/C(=O)SCc2ccco2)cc1	2.1	0.9
O=c1c2cnc3ncnn3c2ccn1Nc1nc2ccccc2[nH]1	4.1	9.2
Cc1ccc(-n2c(SCc3nc(C(=O)N4CCC(C(N)=O)CC4)cs3)nnc2-c2ccccc2Cl)cc1	-8.6	-2.2
CCc1ccc(N2CC(C)Cn3c2nc2c3c(=O)n(CCOC)c(=O)n2C)cc1 (stereo not drawn)	-2.1	10.5
COc1ccc(O)c(C2CC(=O)Nc3c2ccc(N2CCCC2)c3C)c1 (stereo not drawn)	6.0	-6.1
COc1ccccc1OCCCn1c(C2CC(=O)N(Cc3ccccc3)C2)nc2ccccc21 (stereo not drawn)	-0.2	-2.8
Cc1cc(C)cc(NC(=O)CSc2nc(=O)n3cccc(C)c3n2)c1	1.0	-2.9
CCCn1ccnc1SCC(=O)Nc1ccc(N2CCOCC2)cc1	0.6	-1.2
CC(=O)N1CCN(C(=O)CNc2ccc(Cl)c(Cl)c2)CC1	-1.0	-0.1
CC1CCc2noc(N)c2C1 (stereo not drawn)	-4.8	-11.4
CCC(CO)N(Cc1cccnc1)C(=O)Cc1ccc(O)c(Cl)c1 (stereo not drawn)	11.2	2.2
Cc1ccc(C(=O)c2nc3c(n2O)CCCC3)cc1	10.0	2.6

Entries of single compounds, looked up by structure. Order of values: NPYLR7 ag, NPYLR7 ag max-min
CC1CCc2noc(N)c2C1 (stereo not drawn) is listed with -4.8, -11.4
COc1ccc(O)c(C2CC(=O)Nc3c2ccc(N2CCCC2)c3C)c1 (stereo not drawn) is listed with 6.0, -6.1

Remaining list, next part
SMILES	NPYLR7 ag	NPYLR7 ag max-min
CC(C)N(C)S(=O)(=O)c1ccc(Cl)c(C(=O)N2CCC(N3CCNC3=O)CC2)c1	1.5	0.5
FC(F)(F)c1cccc(C2c3cccn3CCCN2Cc2cccc(Oc3ccccc3)c2)c1 (stereo not drawn)	-15.0	-14.8
Cc1cc(C)n(CC(C)NCc2ccc(-n3cncn3)cc2)n1 (stereo not drawn)	12.2	7.5
CCN(Cc1ccncc1)C(=O)c1cc(Br)cc(Br)c1O	0.1	-1.2
C=CCN(CC(=O)N(Cc1ccc(F)cc1)Cc1sccc1C)C(=O)Nc1cccc(Br)c1	5.4	17.7
CN(Cc1ccccc1)C(=O)CCC1CCN(C(=O)C2CCCO2)CC1 (stereo not drawn)	12.0	7.0
COC(=O)CCCC(=O)N1CCN(c2nc3nccc(-c4cccs4)n3n2)CC1	1.0	-0.4
CCC1(C)Cc2ccccc2-c2nc3[nH][nH]c(=S)n3c(=O)c21 (stereo not drawn)	-21.7	-24.8
CCC1(C)NC(=O)N(NC(=O)c2oc3ccccc3c2C)C1=O (stereo not drawn)	6.7	4.8
CCOC(=O)C1(CC2CCCCO2)CCN(C(=O)COc2ccc(Cl)cc2)CC1 (stereo not drawn)	5.0	3.4
CCOc1cc(/C=C(\C#N)c2nn(CCO)c(N)c2C#N)ccc1OCc1ccccc1F	4.9	0.9
O=C(O)c1cc(S(=O)(=O)Nc2ccc3nc(N4CCCC4)sc3c2)ccc1F	3.1	6.1
Cc1ccc(S(=O)(=O)c2nnn3c2nc(N2CCCC2)c2sccc23)cc1C	8.1	10.1
Cc1ccc(CN(Cc2ccco2)CC(O)COCc2ccccc2)s1 (stereo not drawn)	13.3	15.4
O=C(O)C1C2CCC(C2)C1C(=O)Nc1nncs1 (stereo not drawn)	1.0	0.5
Cc1nc2n(n1)C(=O)C(C(c1ccc(Cl)cc1)N1CCc3ccccc3C1)S2 (stereo not drawn)	-4.8	-4.6
CC1CC1C(=O)Nc1ccc(F)cc1C(=O)N1CCC(n2cccc2)CC1 (stereo not drawn)	11.2	8.1
Cc1cc(C)cc(N(C(C)C(=O)O)S(C)(=O)=O)c1 (stereo not drawn)	3.9	3.0
C=CCn1cc(CN2CCC(NC(C)=O)CC2)c(C)n1	2.9	2.3
O=C(CN1CCS(=O)(=O)CC1)OCc1cccc(F)c1	14.7	11.7
COc1ccc(NC(=O)c2nnc(CN3C4CCC3CC(=O)NC4)s2)cc1 (stereo not drawn)	0.4	-1.4
CCOC(=O)C1=C(C)N(C)C(=O)NC1c1ccccc1OC (stereo not drawn)	-5.0	-9.8
COC(=O)CSc1nc(NC(C)=O)nc(C)c1Br	0.6	-1.6
Cc1c2c(n(Cc3cccc(F)c3)c1C(=O)NCc1cccc(C(F)(F)F)c1)CCCC2	-1.9	0.2
NS(=O)(=O)c1cccc(S(=O)(=O)N2CCC(c3ncc[nH]3)CC2)c1	6.8	5.2
CC(=O)N1CCN(c2ncnc3c2oc2ccccc23)CC1	-1.7	-1.4
O=C(NN(C(=O)c1ccc([N+](=O)[O-])cc1Br)c1ccc([N+](=O)[O-])cc1)c1ccccc1	-5.5	-8.1
CCCC(C)C(=O)N1CCn2nc(C(=O)OC)cc2C1 (stereo not drawn)	-2.2	-1.5
CC(C)c1cnc(NS(=O)(=O)c2ncn(C)c2Cl)s1	2.9	-4.3
CN(Cc1ccon1)Cc1cn(Cc2ccccc2)nc1-c1cc2ccccc2o1	2.3	-0.7
Cc1ccc(S(=O)(=O)N(C)Cc2c(C)nn(-c3ccccc3)c2C)c(C)c1	13.1	8.1
CC(C)Cn1c2ccccc2c2nc3ccccc3nc21	6.2	4.8
CN(Cc1ccc(Cl)cc1Cl)C(=O)c1ccc(S(=O)(=O)NC2CC2)cc1	-5.2	-6.7
O=C(OCC(=O)N1CCOC(c2ccc(F)cc2)C1)c1cc2c(s1)CCC2 (stereo not drawn)	10.2	10.2
CNc1nc(-c2cn(CCC#N)c3ccccc23)cs1	4.5	0.1
CCOC(=O)C1(CCc2ccccc2)CCN(C(=O)C2CCOC2)CC1 (stereo not drawn)	0.4	-3.6
CCN(Cc1ccc(N(C)C)cc1)S(=O)(=O)N1CCOCC1	18.0	19.6
CC(=O)c1ccc(C(=O)N(Cc2ccncc2)c2nc3c(C)c(Cl)ccc3s2)cc1	-3.6	-7.2
Cc1ccc(N2C(=O)CC(N3CCCN(C)CC3)C2=O)cc1 (stereo not drawn)	-6.4	-9.8
Cc1noc(COCC(=O)N(CC(F)(F)F)C2CCCC2)n1	2.3	2.0
CCOC(=O)c1nn(-c2ccc(F)cc2)c(=O)cc1N1CCCc2ccccc21	5.2	0.7
CCSc1cc(C(=O)Nc2ccc(-c3ccccc3)cn2)ccn1	-1.3	-3.5
CCc1nc2c(OCc3ccc(F)c(F)c3)cccn2c1N(C)C(=O)c1ccncc1	4.0	-7.3
COc1ccc(N2CCN(c3nc(SCc4ccc(C(=O)NCc5ccncc5)cc4)nc(C)c3C)CC2)cc1	-4.9	-2.0
CC(C)(C)c1ccc(C(=O)N2N=C(c3ccccc3)CC2(O)C(F)(F)F)cc1 (stereo not drawn)	2.8	0.4
CCOC(=O)C1CCN(C(=O)c2ccc(Nc3c(Oc4cccc(OC)c4)cnn(-c4ccc(OC)cc4)c3=O)cc2)CC1	4.9	8.9
Cc1sc2ncnc(SCC#N)c2c1C	-0.2	-3.1
CN(C)[C@@H]1C[C@@H](CO)N(C(=O)c2[nH]nc(N)c2-c2ccccc2)C1	7.5	6.7
O=C(CSc1nc2sc3c(c2c(=O)[nH]1)CCCC3)N(CCO)CCO	0.7	-2.1
C=CCn1c(-c2ccccc2)c[nH]c1=S	-12.8	-16.1
Cc1c(Nc2nc3nonc3nc2Nc2cccc(Cl)c2)c(=O)n(-c2ccccc2)n1C	-5.0	-9.2
CCCN1CCC(C)(C(=O)Nc2ccc(F)cc2)C1 (stereo not drawn)	2.3	-0.4
COc1ccc2c(c1)N1CCN(c3cnccn3)CC1C(C(=O)NCC(C)C)C2 (stereo not drawn)	-10.7	-12.4
C#CC(CO)NCc1ccccc1 (stereo not drawn)	-17.5	-20.4
O=C(CC(=O)NN=C1CCCCC1)NCCc1ccccc1	2.5	-0.3
CCc1nn2c(ncc3c(=O)n(-c4nccs4)ccc32)c1-c1ccccc1	-1.1	3.4
COC(=O)C1(C(=O)OC)CC1S(=O)c1ccccc1 (stereo not drawn)	0.8	2.7
Cc1ccc(C)c(OCc2nc(N)nc(N(C)C)n2)c1C	6.6	5.5
COc1ccc(-c2nc(N3CCN(Cc4ccccc4)CC3)[nH]c(=O)c2C#N)cc1	-1.2	-1.8
C=CCN1C(=O)/C(=C\c2cccc(C(F)(F)F)c2)SC1=S	-1.6	-6.4

Entries from the list above that contain two or more sulfur atoms:
SMILES	NPYLR7 ag	NPYLR7 ag max-min
Cc1ccc(-n2c(SCc3nc(C(=O)N4CCC(C(N)=O)CC4)cs3)nnc2-c2ccccc2Cl)cc1	-8.6	-2.2
O=C(O)c1cc(S(=O)(=O)Nc2ccc3nc(N4CCCC4)sc3c2)ccc1F	3.1	6.1
Cc1ccc(S(=O)(=O)c2nnn3c2nc(N2CCCC2)c2sccc23)cc1C	8.1	10.1
NS(=O)(=O)c1cccc(S(=O)(=O)N2CCC(c3ncc[nH]3)CC2)c1	6.8	5.2
CC(C)c1cnc(NS(=O)(=O)c2ncn(C)c2Cl)s1	2.9	-4.3
Cc1sc2ncnc(SCC#N)c2c1C	-0.2	-3.1
O=C(CSc1nc2sc3c(c2c(=O)[nH]1)CCCC3)N(CCO)CCO	0.7	-2.1
C=CCN1C(=O)/C(=C\c2cccc(C(F)(F)F)c2)SC1=S	-1.6	-6.4

More records follow.
SMILES	NPYLR7 ag	NPYLR7 ag max-min
CCCc1nc(C)cc(-c2ccc(OC)nc2)n1	-3.3	-3.2
COc1ccc(C(=O)NNC(=O)CC23CC4CC(CC(C4)C2)C3)c(OC)c1OC	1.2	-0.3
CCOC(=O)c1nn(-c2ccc(C)cc2)c(=O)cc1OS(=O)(=O)c1ccccc1C(F)(F)F	3.7	2.9
CCCc1cnc(C)nc1N1CC(N2CCCCC2C)C1 (stereo not drawn)	1.5	-0.6
CCOc1ccccc1C(=O)Nc1ccc(N2CCN(C(=O)NCc3ccco3)CC2)nc1	23.7	20.4
CCCCS(=O)(=O)N1C[C@H](N)C[C@H]1C(=O)NC	1.3	0.0
COCCn1c(O)c(C=NNc2ncnc3sccc23)c(=O)[nH]c1=S	3.0	0.6
CCCCOc1ccc(C(=O)Nc2nnc(SCC)s2)cc1	-6.8	-9.0
CCN1Cc2cc3c(cc2NCCC1=O)OCO3	3.7	6.8
CC(=O)O[C@H]1CC[C@@]2(C)C(=CCC3C2CC[C@@]2(C)C3CC[C@@H]2C(C)CCCC(C)C)C1 (stereo partly drawn)	-8.4	-10.7
O=C(C1CCN(S(=O)(=O)c2cccs2)CC1)N1CCCC(C(F)(F)F)C1 (stereo not drawn)	1.0	4.9
Cc1ccc2c(c1)c(N=NC(=O)COc1c(Cl)cc(Cl)cc1Cl)c(O)n2C	-1.9	-9.1
Cc1ccc(-n2nc(C(=O)NCCN3CCOCC3)c(=O)n(Cc3cccc(F)c3)c2=O)cc1Cl	19.6	19.7
Cc1cc(F)ccc1CC(=O)N1CCN(c2ncccn2)CC1C(=O)O (stereo not drawn)	5.7	1.7
COc1ccc(C2CC(c3ccccc3)=NN2C(=O)c2ccc(Br)o2)cc1 (stereo not drawn)	-5.5	-6.5
CCCC(=O)N1CCCCC1C(=O)Nc1ccc(Oc2cc(C)[nH]n2)cc1 (stereo not drawn)	12.0	8.3
NC(=O)CN1CCCC(Nc2ccc(F)c(F)c2)C1 (stereo not drawn)	1.4	-2.2
OC(c1ccccc1)(c1ccccc1)c1ccc(CN(Cc2ccccc2)Cc2ccco2)o1	8.7	12.5
COc1ccccc1C(C)N(C)CC(=O)Nc1cccc(S(C)(=O)=O)c1 (stereo not drawn)	6.1	8.0
COc1ccc(C=c2sc(=CC(=O)c3cc(C)cc(C)c3)[nH]c2=O)cc1	-15.6	-14.1

An excerpt of these results, as labelled records.
> NC(=O)CN1CCCC(Nc2ccc(F)c(F)c2)C1 (stereo not drawn)
  NPYLR7 ag = 1.4	NPYLR7 ag max-min = -2.2

> OC(c1ccccc1)(c1ccccc1)c1ccc(CN(Cc2ccccc2)Cc2ccco2)o1
  NPYLR7 ag = 8.7	NPYLR7 ag max-min = 12.5

> COc1ccccc1C(C)N(C)CC(=O)Nc1cccc(S(C)(=O)=O)c1 (stereo not drawn)
  NPYLR7 ag = 6.1	NPYLR7 ag max-min = 8.0
